# Screening results from PubChem BioAssay.
# CtBP-E1A blk – blocks the CtBP interaction with E1A; AID 651724; AlphaScreen GST-E1A/His-CtBP binding, 1536-well; active compounds read low; control for the full effect not named in the record; hit rate 0.49% among 340,000; activity change, % (no concentration beside the values); in the data active means activity change below about -65%; inconclusive means about -30% to -65%; inactive means above about -30%; also: % is scaled to controls: 0 for no effect and ±100 for the full control effect
#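 Homogeneous bead-based format: GST-tagged E1A captured on glutathione donor beads, His-tagged CtBP on nickel acceptor beads; compounds precede bead addition by 2 h at 37 °C.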
# PINK1 expr mod – PINK1 expression modulation; PINK1 immunofluorescence, high-content cytometry, 24 h; Potency, µM (doses to about 76.6 µM), without a hit: at the highest dose activation (PINK1 increase), usual class: activators; hit rate 0.2% among 410,000; AID 624263; active = well fitted activation curve with a large enough effect; inconclusive = small, poorly fitted or top-dose-only effect; inactive = flat fitted curve, though single readings scatter; cell line not stated here;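 also: potency is read from the fitted curve at half-maximal effect; % of control where 0% means no effect; nearly all actives have a fitted effect of over 65% in size; a mitochondrial uncoupler was the plate control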
#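 Stable cell line, 250 cells/well, 12 h attachment; compounds pinned at 5 concentrations, 24 h; CCCP control. Fixed with nuclear dye, primary antibodies 12 h at 10 degrees C, secondary plus cell stain; laser-scanning cytometer read.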
# Sfp inh – Sfp phosphopantetheinyl transferase inhibition; Q9F4F7; Biochemical Sfp PPTase activity, qHTS; Potency, µM, without a hit: max response, negative = inhibition, most hits filed as inhibitors; hit rate 3.5% among 310,000; active = well fitted inhibition curve with a large enough effect; inconclusive = small, poorly fitted or top-dose-only effect, or another doubt; inactive = no such curve, though single readings can be large or run the other way;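 also: the enzyme is Sfp with the accession as filed and its product quenches rhodamine fluorescence; potency is read from the fitted curve at half-maximal effect; 0% = enzyme reaction without inhibitor and -100% = no enzyme wells; top concentration of the series not given in the record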
#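 Fluorescence-quenching assay with 15 nM Sfp, 5 uM rhodamine-CoA and 12.5 uM BHQ-2-labelled ybbR peptide in pH 7.6 Hepes/MgCl2 buffer. Enzyme was pre-incubated with compound for 15 min at room temperature. Rate was taken from the 30-min fluorescence change (525/598 nm).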
# Six1-Eya2 inh – blocks human Six1 binding to Eya2. Q15475+O00167. hit rate 0.56% among 360,000. activity change, % (no concentration beside the values). AlphaScreen GST-Six1/His-Eya2 binding, biochemical; active compounds read low; control for the full effect not named in the record; in the data active = activity change below about -65%; inconclusive = about -30% to -65%; inactive = above about -30%; also: % is scaled to controls: 0 for no effect and ±100 for the full control effect
#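 Six1/Eya2 binding was read as AlphaScreen signal after compounds were pinned into GST-Six1 plus His-tagged Eya2 (5X stock 250/500 nM) in pH 8.0 Tris/NaCl/TCEP buffer, beads added, then incubated 1 h, 37 C, dark.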
# TRPV1 PAM – potentiators of human vanilloid receptor 1 (TRPV1). Q8NER1. TRPV1-expressing cells, Fluo-8 calcium influx, capsaicin EC20 potentiation; host cell line not named in the record; control for the full effect not named in the record. potentiation, % at 8.33 µM. hit rate 0.02% among 320,000; active means potentiation above 80%; inconclusive means 30% to 80%; inactive means below 30%; also: 0% is about no effect
# Target sequence (Q8NER1 whole entry, looked up): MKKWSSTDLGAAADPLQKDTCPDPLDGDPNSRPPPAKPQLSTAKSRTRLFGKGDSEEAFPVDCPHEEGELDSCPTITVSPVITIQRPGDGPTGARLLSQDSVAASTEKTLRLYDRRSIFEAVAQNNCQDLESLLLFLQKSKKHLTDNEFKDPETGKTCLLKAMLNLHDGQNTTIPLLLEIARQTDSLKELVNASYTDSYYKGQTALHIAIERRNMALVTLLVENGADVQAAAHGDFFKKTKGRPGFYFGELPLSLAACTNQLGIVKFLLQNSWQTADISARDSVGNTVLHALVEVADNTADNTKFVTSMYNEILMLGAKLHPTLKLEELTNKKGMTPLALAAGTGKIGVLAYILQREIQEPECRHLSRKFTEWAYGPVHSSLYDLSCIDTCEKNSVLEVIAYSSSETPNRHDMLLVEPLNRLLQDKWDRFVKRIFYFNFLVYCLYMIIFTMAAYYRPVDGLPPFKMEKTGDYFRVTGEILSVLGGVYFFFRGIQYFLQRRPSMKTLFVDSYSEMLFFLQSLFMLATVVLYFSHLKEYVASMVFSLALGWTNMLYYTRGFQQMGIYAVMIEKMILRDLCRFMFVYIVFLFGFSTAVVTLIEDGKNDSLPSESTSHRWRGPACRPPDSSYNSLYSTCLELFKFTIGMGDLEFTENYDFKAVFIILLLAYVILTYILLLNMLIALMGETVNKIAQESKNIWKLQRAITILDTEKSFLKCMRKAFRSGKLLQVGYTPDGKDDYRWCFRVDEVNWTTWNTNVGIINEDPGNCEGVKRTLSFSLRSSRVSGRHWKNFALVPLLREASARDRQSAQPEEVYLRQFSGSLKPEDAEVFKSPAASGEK
#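 Cells expressing TRPV1 were dye-loaded with Fluo-8 and read kinetically: 10 s baseline, 3 min after compound (agonist portion), then 2 min after EC20 capsaicin (allosteric enhancer portion). Calcium-bound dye fluorescence at 480/520 nm.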
# D2 ag – human D2 receptor agonism in beta-arrestin assay. P14416. DiscoveRx PathHunter D2 beta-arrestin, luminescence, 90 min; 100% = 57 uM dopamine signal. activation, % (test concentration not listed). hit rate 0.084% among 360,000. AID 624465; in the data active = activation above about 40%; inconclusive = about 15% to 40%; inactive = below about 15%; also: compound concentration not given in the record; the text of the record calls up to 30% inactive
#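 DiscoveRx PathHunter D2 beta-arrestin cells (2,100/well) attached overnight, then compound-stimulated 90 min at 37 C in HBSS/10 mM HEPES/0.1% Tween-20 buffer; beta-galactosidase complementation read by luminescence after 1 h at ambient temperature. Dopamine 57 uM final (EC100) as control.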
# D2 potentiator – potentiates the human D2 dopamine receptor allosterically. P14416. AID 624464. hit rate 0.23% among 360,000. potentiation, % (test concentration not listed). DiscoveRx D2 beta-arrestin cells, luminescence, 90 min; 100% = 57 uM dopamine signal; active = potentiation of 50% or more; inconclusive = 30% to 50%; inactive = 30% or less;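 also: compound concentration not given in the record; tested on top of an EC20 dose of dopamine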
#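 D2 cells co-treated with compound plus 50 nM dopamine (EC20) for 90 min at 37 deg C to detect potentiation. Beta-arrestin recruitment was read as enzyme-fragment luminescence after 1 h at ambient temperature. Full response was set by 57 uM dopamine.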
# The depositor's hits bear a star; ? = inconclusive; . = no result given; & = joins results of further samples; [ ] = dose if it differs, or a comment. Random draw from the library. About 3.7% of those tested had a hit in this group.
SMILES,CtBP-E1A blk,PINK1 expr mod,Sfp inh,Six1-Eya2 inh,TRPV1 PAM,D2 ag,D2 potentiator
NS(=O)(=O)c1ccc(CCNC(=O)COC(=O)c2ccc([N+](=O)[O-])o2)cc1,0,0.2%,.,-2,.,4.2,4
Cc1cccc2cc(CN(Cc3ccccc3)C(=S)NCCCN(C)C)c(=O)[nH]c12,-12,-0.8%,8%,-11,-4,0.4,-6
COc1ccc(C)cc1S(=O)(=O)N1CCCCCC1,14,0.3%,9%,5,11,-3.6,0
c1ccc(C(=C2CCCO2)c2ccccc2)cc1,-11,-1.3%,.,19,.,-1.5,-14
COc1ccccc1C(=O)Nc1ccccc1C(=O)NC1CCCCC1,-3,-1.0%,10%,2,-7,-4.1,-12
COc1ccc2c(c1)CCO[C@]21O[C@H](CCO)C[C@H](O)[C@H]1O,1,-0.7%,.,-1,.,-2.6,-4
C[C@H](CO)N1C[C@H](C)[C@H](CN(C)S(=O)(=O)c2ccccc2)Oc2c(NS(C)(=O)=O)cccc2C1=O,12,1.6%,.,9,.,-1.3,1
O=[N+]([O-])c1ccc(N/N=C/c2ccccc2)cc1,9,3.4%,4%,20,.,2.7,-8
CCN1CCN(c2ccc(NC(=O)c3ccc4c(c3)[nH]c(=O)n4Cc3ccc(F)cc3)cc2)CC1,1,0.0%,16%,-25,21,-4.3,-20
CCCCCCN1C=CC=C/C1=C\C=C(C#N)C#N,-23,2.8%,-26%,-19,-10,-1.4,-1

# An excerpt from above, reduced to Sfp inh, PINK1 expr mod and CtBP-E1A blk:
Compound,Sfp inh,PINK1 expr mod,CtBP-E1A blk
C[C@H](CO)N1C[C@H](C)[C@H](CN(C)S(=O)(=O)c2ccccc2)Oc2c(NS(C)(=O)=O)cccc2C1=O,.,1.6%,12
O=[N+]([O-])c1ccc(N/N=C/c2ccccc2)cc1,4%,3.4%,9
CCN1CCN(c2ccc(NC(=O)c3ccc4c(c3)[nH]c(=O)n4Cc3ccc(F)cc3)cc2)CC1,16%,0.0%,1

# (cont.)
SMILES,CtBP-E1A blk,PINK1 expr mod,Sfp inh,Six1-Eya2 inh,TRPV1 PAM,D2 ag,D2 potentiator
O=C(Nc1ccc(F)cc1)c1ccc(NC(=O)C2CCCO2)cc1 (stereo not drawn),0,2.4%,25%,4,1,-8.3,-3
O=C(NCCO)c1cc2c(s1)CCC2,19,0.0%,9%,4,-8,-0.7,-4
N#CCCn1cc(C(=O)CN2C(=O)C(=O)N(C3CCCC3)C2=O)c2ccccc21,3,-2.7%,.,3,3,-1.3,-18
Oc1oc(-c2ccccc2)nc1/C=N/c1nccs1,-2,-1.6%,3%,-1,9,-1.8,-20
Cc1ccc(CN2CCNC(=O)C2CC(=O)NCCCn2cccn2)o1 (stereo not drawn),8,-0.3%,-2%,7,2,2.8,-4
O=C(c1ccc(CS(=O)(=O)c2ccc(Br)cc2)o1)N1CCCCCC1,8,3.5%,-24%,5,-2,-3.3&-3.0,4
CCCCN(C(=O)CSc1nnnn1-c1ccccc1OC)C1CCS(=O)(=O)C1 (stereo not drawn),-20,1.0%,.,7,-5,2.4,9
COc1ccccc1NCC(=O)N1CCN(S(=O)(=O)c2ccccc2)CC1,-26,-0.9%,.,15,-5,3.9,1
O=C(CCn1c(=S)[nH]c2cc3c(cc2c1=O)OCO3)NCCc1ccccc1Cl,-16,9.3%,.,9,.,-2.6,-5
Cc1nc2ccc([N+](=O)[O-])cc2c(=O)n1Cc1ccc([N+](=O)[O-])cc1,.,0.1%,11%,-5,2,12,3
O=C(Nc1ccc2c(c1)OCO2)c1cccs1,-5,2.6%[38.3 µM],-7%,-3,5,0.3,-9
Cc1ccc(SC(C)C(=O)N2CCC(C(N)=O)CC2)cc1 (stereo not drawn),-2,1.5%,21%,13,-10,5.6,-4
CCCC(=O)Nc1ccc(C(=O)NNC(=S)NC(=O)c2ccc(Br)o2)cc1,.,1.8%,12%,-13,0,0.3,-3
CCOC(=O)N1CCC(NC(=O)c2ccc3c(c2)N(C)CCS3)CC1,37,2.5%[38.3 µM],25µM*,14,6,-0.8,-15
COc1ccc2nc(/N=C/c3c(C)[nH]n(-c4ccc(C)cc4C)c3=O)sc2c1,-88*,0.3%,-4%,-70*,24,-2.4,4
CCOC(=O)c1ccc(CNC(=O)CSc2nnnn2-c2ccc(Cl)cc2)o1,-1,0.7%,6%,5,-5,-5.3,-10
COC(=O)c1ccc(OC)cc1OCC(=O)N1CCN(c2ccc(F)cc2)CC1,-4,-1.0%,2%,-1,-9,-1.1,-12
O=C1c2ccccc2NC(c2cccc(F)c2)N1Cc1ccccc1 (stereo not drawn),3,23%,0%,8,6,6.9,-11
COc1ccccc1S(=O)(=O)n1cc(Cc2ccccc2)c(N)n1,0,19%[38.3 µM],-19%,-1,-4,-2.6,-2
Cc1cc(NC(=O)CCSc2nc(-c3ccco3)cc(C(F)(F)F)n2)n(-c2ccccc2)n1,-1,0.4%,9%,5,7,-0.7,-1
COc1ccc(C(=O)Nc2cc(OC)cc3cccnc23)cc1,.,2.5%,-11%,16,-22,-1.8,-13
Cc1cccc(NS(=O)(=O)c2cc(C(=O)N3CCOCC3)ccc2Cl)c1,-14,1.8%,-1%,-12,5,-5.1,-3
CCC(CO)Oc1cc(NC(=O)c2ccc(C)cc2)c2ncn(C(C)C)c2c1 (stereo not drawn),-1,-1.0%,.,-8,13,2.6,5
COc1ccc(CNC(=O)/C=C/C(=O)O)cc1,.,-0.7%,15%,0,14,3.4,4
Cc1ccccc1-c1cc2nc(NCCCN(C)C)n(C)c(=O)c2s1,1,3.9%,.,0,.,1.1,3
COc1ccc(OC)c(NC(=S)N2CCN(c3ccccn3)CC2)c1,-5,-0.3%,-9%,-4,3,0.8,?
Cc1[nH]nc(-c2ccc(OCc3cnn(-c4ccccc4)c3)c(C)c2O)c1Oc1ccccc1,1,-0.5%,23%,1,6,2.0,-3
CC(C)c1ccc(N=C2N=C(N)c3ccccc32)cc1,-1,-1.4%,1%,-2,.,0.4,-2
O=C1NC[C@@H](CCCCN2C[C@H](Cc3ccc(O)cc3)N(CCc3ccccc3)C(=O)C2=O)N(CCC2CCCCC2)C1=O,2,0.3%,.,-7,.,.,.
CCOC(=O)c1cnn(-c2cc(C)cc(C)c2)c1N,7,-1.7%,14%,8,5,3.4,-2
COc1ccc(C(=O)C2CCCN(Cc3cccn3-c3ccccn3)C2)c(C)c1 (stereo not drawn),25,?,-11%,-7,-6,-3.5,-16
Cc1cccc(N(CC(=O)NC(C)(C)C)C(=O)CCC(=O)Nc2ccccn2)c1,0,-0.7%,12%,9,6,-0.4,-7
CC(CNC(=O)C(=O)NC(C)CCc1ccccc1)Cc1ccccc1 (stereo not drawn),9,.,-1%,3,-7,1.1,0
CNc1cnn(-c2ccc(C)cc2)c(=O)c1Cl,1,-0.4%,12%,1,8,-1.3,-8
COc1ccc2c(c1)C(=O)CC(c1ccccc1)O2 (stereo not drawn),21,2.2%,.,3,.,-3.4,-5
Cc1ccc(CN2CCN(Cc3ccc4cc(F)ccc4n3)CC2CCO)o1 (stereo not drawn),-2,2.7%,-30%,-2,-8,-6.2,-5
Cc1cccc(NC(=O)COc2ccc3c(c2)CCC3)n1,-22,1.8%,.,16,-19,-3.3,-15
CC(C)Oc1ccc(F)cc1-c1cc(C(=O)NCc2cc(C(F)(F)F)cc(C(F)(F)F)c2)[nH]n1,0,35µM*,.,0,.,-2.7,-12
CCCn1c(=O)n(C)c(=O)c2c(SCc3cc(C(C)=O)ccc3OCC)nc(C3CC3)nc21,-5,5.8%,.,-8,.,-5.2,-13
COc1ccc(OC)c(S(=O)(=O)N2CCC(C(=O)N3CCOCC3)CC2)c1,9,-2.0%,4%,1,-2,5.6,0
CC(=O)Nc1ccc(S(=O)(=O)NCCC(=O)OCc2ccccc2F)cc1,0,2.6%,.,19,8,12,2
NC(=O)NCCCC(=O)O,5,0.4%,.,3,6,7.1,-3
O=C(COc1ccc(Cl)cc1)N1CCN(S(=O)(=O)c2ccccc2)CC1,4,2.7%[38.3 µM],25%,-1,-15,-0.2,-8
CCC(CO)Oc1cc(NC(=O)c2cccc(F)c2)c2ncn(C(C)C)c2c1 (stereo not drawn),3,2.6%,.,3,.,6.5,-6
CCN(CCCNC(=O)COc1cc(=O)n(CC)c2ccccc12)c1ccccc1,-10,1.9%,-16%,-19,20,-2.2,-14
CC(C)(C)NC(=O)CN1CCC(O)(c2ccccc2)CC1,5,-1.2%[38.3 µM],15%,1,-7,-3.8,-23
COc1ccc(N(CC(=O)Nc2cccc(C)c2C)S(=O)(=O)c2c(C)n[nH]c2C)cc1,-66*,58%[38.3 µM],3%,?,-13,-2.5,-8
CCc1nnc(NC(=O)CSc2nnc(C)n2-c2ccc(C)cc2)s1,5,5.3%,11%,1,11,-6.0,0
COc1ccc(C(=O)c2cc(OC)c(OC)c(OC)c2)cc1OC,-2,12%,.,-4,.,0.6,23
O=C(COC(=O)/C=C/c1ccccc1Cl)NCC1CCCO1 (stereo not drawn),0,-0.2%,.,-2,.,-1.4,0
# Further compounds follow.
SMILES,CtBP-E1A blk,PINK1 expr mod,Sfp inh,Six1-Eya2 inh,TRPV1 PAM,D2 ag,D2 potentiator
CC1=C(C(=O)OC2CCCCC2)C(c2ccccc2Br)NC(=O)N1 (stereo not drawn),0,0.2%,4%,9,-10,1.8,2
O=C(NNC(=O)c1sccc1-n1cccc1)Nc1ccc(F)cc1,-1,-1.3%,17%,-3,6,1.0,-7
O=C(c1ccccc1Cl)N1CCc2ccccc2C1,8,-0.4%[38.3 µM],-1%,3,-8,-0.5,-5
COc1ccc(-c2c(C)oc3c(CN4CCCCC4C)c(O)ccc3c2=O)cc1OC (stereo not drawn),-1,-0.5%,19%,0,29,0.3,-3
Cc1ccc(NC(=O)Cn2nc(C)c3ccccc3c2=O)cc1F,8,-0.5%,-6%,-1,4,-2.1,-10
CCOC(=O)c1oc2nc(C)c3c(c2c1N)CC(C)(C)OC3,2,-0.7%,-2%,-1,-14,-4.6,6
CCCn1c(N)c(Sc2ccc([N+](=O)[O-])cc2)c(=O)n(CCC)c1=O,-9,-0.7%,30%[activator],-3,3,-1.9,-3
O=C(NC1CCCc2ccccc21)C12CC3CC(CC(O)(C3)C1)C2 (stereo not drawn),-16,-0.7%,-8%,0,-16,-4.4,-9
